Screening data as filed in PubChem BioAssay.
EPAC1 ag: qHTS for Agonist of cAMP-regulated guanine nucleotide exchange factor 3 (EPAC1): primary screen; EPAC1 agonist qHTS, biochemical assay; response scale: 100% = response to 6.5 mM cAMP; Potency, µM (top dose mostly 154 µM), inactives show at the highest dose activation, actives largely listed as activators; 0.073% of 360,000 active; AID 720707, 2013; note: potency is the fitted concentration of half-maximal effect; nearly all actives have a fitted effect of over 60% in size
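Nucleotide exchange assay: 100 nM EPAC1 with 250 nM Rap1B loaded with BODIPY-GDP and 50 uM GDP, room temperature. Fluorescence (480/540 nm) read every 5 min for 30 min; signal change normalized to 6.5 mM cAMP as full agonist.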
EPAC1 antag: qHTS for Antagonist of cAMP-regulated guanine nucleotide exchange factor 3 (EPAC1): primary screen. 0.14% of 360,000 active. AID 720709, 2013. Potency, µM (series often up to 115 µM), without a hit: at the top dose activity change, negative = inhibition, most hits filed as inhibitors. EPAC1 GEF assay, Rap1b-BODIPY-GDP exchange fluorescence. Rap guanine nucleotide exchange factor 3 (Homo sapiens), O95398;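 note: potency is the fitted concentration of half-maximal effect; plate controls were vehicle for no effect and positive control for full effect; nearly all actives have a fitted effect of over 50% in size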
GLP1R ag: qHTS of GLP-1 Receptor Agonists; Glucagon-like peptide 1 receptor (Homo sapiens), P43220; 0.007% of 380,000 active; HEK293 GLP-1R CRE-luciferase, luminescence, 4-6 h; cells express a hypersensitive GLP-1R form; Potency, µM (doses to about 45.6 µM), without a hit: at the top dose activation, usual class: activators; AID 624172, 2012; note: potency is the fitted concentration of half-maximal effect; % of control where 0% means no effect
Target sequence (P43220 whole entry, looked up): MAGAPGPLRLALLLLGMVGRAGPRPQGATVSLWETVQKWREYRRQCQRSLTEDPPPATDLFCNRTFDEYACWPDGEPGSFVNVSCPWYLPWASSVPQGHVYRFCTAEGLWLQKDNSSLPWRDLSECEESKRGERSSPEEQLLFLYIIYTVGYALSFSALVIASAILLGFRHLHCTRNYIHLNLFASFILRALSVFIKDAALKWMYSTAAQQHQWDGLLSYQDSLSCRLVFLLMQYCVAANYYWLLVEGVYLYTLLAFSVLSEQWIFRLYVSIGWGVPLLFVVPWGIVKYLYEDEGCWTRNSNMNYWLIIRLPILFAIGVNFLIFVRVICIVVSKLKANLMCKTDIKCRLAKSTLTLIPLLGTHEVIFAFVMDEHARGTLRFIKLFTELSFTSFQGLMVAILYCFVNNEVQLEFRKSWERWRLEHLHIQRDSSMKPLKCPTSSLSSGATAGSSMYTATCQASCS
GLP-1R inv ag: qHTS of GLP-1 Receptor Inverse Agonists (Inhibition Mode) | Glucagon-like peptide 1 receptor (Homo sapiens), P43220 | HEK293 GLP-1R CRE-luciferase, luminescence, 24 h; GLP-1R form is constitutively active | Potency, µM (titrated, usually from 38.3 µM), for inactives: at the highest dose activity change, negative = inhibition, most hits filed as inhibitors | 1.6% of 410,000 active | AID 624417, 2012; note: potency is the fitted concentration of half-maximal effect; % is set by controls: 0 for no effect and ±100 for the full control effect; nearly all actives have a fitted effect of over 55% in size
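Assay principle: reduced luminescence from a cAMP-responsive reporter in HEK293 cells co-expressing a constitutively active GLP-1R. Conditions: 24 hr compound incubation, 37 deg C, 5% CO2.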
IL2 activator: qHTS of IL-2 Activators | IL-2 activation reporter assay, cell-based qHTS; stimulated with anti-CD3/CD4/CD28 beads; in transgenic mouse T cells | activation, % (series mostly up to about 46 µM) | 0.065% of 360,000 active | AID 652025, 2013; in the data active = activation above about 50%; inconclusive = mostly about 30% to 49%; note: 0% is about no effect
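Readout is EGFP and DsRed signal by fluorescent plate cytometry after 18 h at 37 degrees C. Transgenic mouse T cells (750/well) received compound for 60 min before bead stimulation (anti-CD3, anti-CD4, anti-CD28); memory T cells served as non-tolerant control.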
Numbers without * were called inactive; ? = inconclusive; . = not tested or not shown; & = joins results of further samples; [ ] = dose if it differs, or a comment. Unless noted, calls come from the whole dose curve; as a rule, active = well fitted curve in the direction sought with a large enough effect; inconclusive = small, poorly fitted or top-dose-only effect, or another doubt; inactive = no such curve, though single readings can be large; an effect the other way counts as inactive or inconclusive.

1	Nc1ncnc2c1ncn2[C@@H]1O[C@H](COP(=O)(O)OP(=O)(O)OP(=O)(O)O)[C@@H](O)[C@H]1O
2	Clc1cccc(N2Cc3ccccc3-n3nncc3C2)c1
3	C[C@@H](Cc1ccc(O)cc1)NC[C@@H](O)c1cc(O)cc(O)c1
4	Cc1[nH]nc2ccc(-c3cncc(OC[C@@H](N)Cc4c[nH]c5ccccc45)c3)cc12
5	NC(=O)c1ccc(NC(=O)COC(=O)C2(c3ccccc3F)CCCC2)cc1
6	O=C(c1cc(Cl)cc(Cl)c1)N1Cc2ccccc2-n2nncc2C1
7	CCOC(=O)CNC(=O)N1Cc2ccccc2-n2nncc2C1
8	COc1ccc2c(c1)/C(=C/c1cnc[nH]1)C(=O)N2
assay / compound	1	2	3	4	5	6	7	8
GLP-1R inv ag	17%	-23%	.	?	?	-5%	11%	32%[activator]
GLP1R ag	?	15%	38%	-15%	16%	12%	15%	-6%
EPAC1 antag	1%	-5%	.	-9%	-5%	?	-24%	6%
IL2 activator	-0.1	0.4	.	-0.2	2.1	-1.4	1.1	0.9
EPAC1 ag	-8%	10%	.	-6%	8%	-2%	10%	-6%

Quoted from above: nos. 3–6
3	C[C@@H](Cc1ccc(O)cc1)NC[C@@H](O)c1cc(O)cc(O)c1
4	Cc1[nH]nc2ccc(-c3cncc(OC[C@@H](N)Cc4c[nH]c5ccccc45)c3)cc12
5	NC(=O)c1ccc(NC(=O)COC(=O)C2(c3ccccc3F)CCCC2)cc1
6	O=C(c1cc(Cl)cc(Cl)c1)N1Cc2ccccc2-n2nncc2C1
assay / compound	3	4	5	6
GLP-1R inv ag	.	?	?	-5%
GLP1R ag	38%	-15%	16%	12%
EPAC1 antag	.	-9%	-5%	?
IL2 activator	.	-0.2	2.1	-1.4
EPAC1 ag	.	-6%	8%	-2%

Other compounds.
9	C[C@H]1COc2cc(N3CCN(C)CC3)ccc2S(=O)(=O)N1
10	COc1ccc(C(C)NCCC(c2ccc(OC(C)C)cc2)c2ccccc2OC)cc1 (stereo unspecified)
11	CN1[C@@H]2CC(OC(=O)[C@H](CO)c3ccccc3)C[C@H]1[C@@H]1O[C@@H]12 (stereo partly specified)
12	O=C(Cc1cccs1)N1Cc2ccccc2-n2nncc2C1
assay / compound	9	10	11	12
GLP-1R inv ag	15%	?	3%&2%&-5%&0%	-11%
GLP1R ag	-3%	-10%	6%&-1%&-2%&1%	0%
EPAC1 antag	-4%	-15%	0%&-5%&6%&-2%	-12%
IL2 activator	0.2	-0.6	-0.2&-0.3&0.5&-0.1	-0.9
EPAC1 ag	-1%	1%	.	12%

One compound at a time, as listed above. Order of values: GLP-1R inv ag, GLP1R ag, EPAC1 antag, IL2 activator, EPAC1 ag
Entry for C[C@H]1COc2cc(N3CCN(C)CC3)ccc2S(=O)(=O)N1 : 15%, -3%, -4%, 0.2, -1%
Entry for CN1[C@@H]2CC(OC(=O)[C@H](CO)c3ccccc3)C[C@H]1[C@@H]1O[C@@H]12 (stereo partly specified) : 3%&2%&-5%&0%, 6%&-1%&-2%&1%, 0%&-5%&6%&-2%, -0.2&-0.3&0.5&-0.1, .
Entry for COc1ccc(C(C)NCCC(c2ccc(OC(C)C)cc2)c2ccccc2OC)cc1 (stereo unspecified) : ?, -10%, -15%, -0.6, 1%
Entry for O=C(Cc1cccs1)N1Cc2ccccc2-n2nncc2C1 : -11%, 0%, -12%, -0.9, 12%

Only part of the results is shown; rates above refer to the full screens.
